# Bioassay records deposited in PubChem BioAssay by National Center for Advancing Translational Sciences (NCATS).
# PINK1 expr mod: A Quantitative High throughput Screen to Identify Chemical Modulators of PINK1 Expression. Potency, µM (top dose mostly 76.6 µM), for the others: top-dose activation (PINK1 increase), hits mostly activators. AID 624263, 2012. 410,000 compounds, 0.2% hits. PINK1 immunofluorescence, high-content cytometry, 24 h; active = well fitted activation curve with a large enough effect; inconclusive = small, poorly fitted or top-dose-only effect; inactive = flat fitted curve, though single readings scatter; cell line not stated here;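 further: potency means the concentration at half of the fitted maximal effect; % of control where 0% means no effect; nearly all actives have a fitted effect of over 65% in size; a mitochondrial uncoupler was the plate control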
#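 Readout is PINK1 immunofluorescence, quantified alongside mitochondrial, cell and nuclear markers by laser-scanning microplate cytometry. Cells from a stable line were exposed to compound titrations (5 concentrations) for 24 hours, with CCCP controls.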
# CtBP-E1A inh: qHTS Assay for Inhibitors of the CtBP/E1A Interaction; CtBP / adenovirus E1A interaction (AlphaScreen); AlphaScreen GST-E1A/His-CtBP binding, 1536-well; hits give low values; control for the full effect not named in the record; activity change, % (test concentration not listed); 340,000 compounds, 0.49% hits; in the data active means activity change below about -65%; inconclusive means about -30% to -65%; inactive means above about -30%; further: on the % scale 0 is the no-effect control and ±100 the full control effect
#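 AlphaScreen with 125 nM GST-E1A and 125 nM His-CtBP (5X stocks) in Tris pH 8.0, 300 mM NaCl, BSA, Tween 20, TCEP. Compounds preincubated 2 h at 37 deg C, then glutathione donor/nickel acceptor beads added for 1 h at 37 deg C in dark.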
# TRPML1 blocker: qHTS for Inhibitors of the Human Mucolipin Transient Receptor Potential 1 (TRPML1); Mucolipin-1 (Homo sapiens), Q9GZU1; TRPML1-inducible cells, Ca2+ dye fluorescence, FDSS; hits give low values; inhibition of EC80 agonist-evoked calcium signal; activity change, negative = inhibition, % (concentration not given with the values); 390,000 compounds, 0.02% hits; AID 624415, 2012; in the data active means activity change below about -50%; inconclusive means about -30% to -50%; inactive means above about -30%;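 further: stimulus is agonist 54-4 at its EC80 concentration; on the % scale 0 is the no-effect control and ±100 the full control effect; the text of the record puts the active cut at -80%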
#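 TRPML1-DL cells, Tet-induced overnight (~16 h, 37 °C) at 1,500 cells/well, were loaded with Ca8 no-wash dye plus quencher for 45-90 min at room temperature. Compounds were pinned during FDSS kinetic reading; agonist 54-4 at EC80 (4 uM final) then added.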
# D2 ag: Beta-Arrestin HTS for Positive Allosteric Modulators of the Human D2 Dopamine Receptor: Agonists; D(2) dopamine receptor (Homo sapiens), P14416; DiscoveRx PathHunter D2 beta-arrestin, luminescence, 90 min; 100% = 57 uM dopamine signal; activation, % (no concentration beside the values); 360,000 compounds, 0.084% hits; in the data active = activation above about 40%; inconclusive = about 15% to 40%; inactive = below about 15%; further: compound concentration not given in the record; the text of the record calls up to 30% inactive
#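 Agonist mode: compounds alone added to overnight-plated D2 PathHunter cells for 90 min at 37 C, with 57 uM final dopamine (EC100) defining full response. Beta-arrestin recruitment detected by chemiluminescent reagent, read after 1 h at ambient temperature.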
# Six1-Eya2 inh: qHTS Assay for Inhibitors of the Six1/Eya2 Interaction | Homeobox protein SIX1 (Homo sapiens) + Protein phosphatase EYA2 (Homo sapiens), … | AID 651725, 2012 | activity change, % (concentration not given with the values) | AlphaScreen GST-Six1/His-Eya2 binding, biochemical; hits give low values; control for the full effect not named in the record | 360,000 compounds, 0.56% hits; in the data active = activity change below about -65%; inconclusive = about -30% to -65%; inactive = above about -30%; further: on the % scale 0 is the no-effect control and ±100 the full control effect
# Target sequence (O00167 whole entry, looked up): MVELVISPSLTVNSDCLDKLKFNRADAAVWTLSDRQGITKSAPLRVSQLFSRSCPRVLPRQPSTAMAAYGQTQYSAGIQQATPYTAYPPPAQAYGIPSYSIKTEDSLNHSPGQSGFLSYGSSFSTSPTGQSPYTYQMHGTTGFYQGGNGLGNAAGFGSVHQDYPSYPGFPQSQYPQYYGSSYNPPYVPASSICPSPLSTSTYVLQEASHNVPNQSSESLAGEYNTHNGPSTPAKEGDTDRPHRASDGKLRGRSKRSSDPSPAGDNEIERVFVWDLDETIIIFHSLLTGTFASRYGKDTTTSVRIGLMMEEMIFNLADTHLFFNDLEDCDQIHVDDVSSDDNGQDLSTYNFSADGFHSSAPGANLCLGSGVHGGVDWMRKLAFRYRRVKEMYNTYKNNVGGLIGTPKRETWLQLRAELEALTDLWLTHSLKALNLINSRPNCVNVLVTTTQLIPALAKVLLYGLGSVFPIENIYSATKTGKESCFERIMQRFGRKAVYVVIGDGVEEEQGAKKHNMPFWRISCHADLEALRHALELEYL
# Target sequence (Q15475 whole entry, looked up): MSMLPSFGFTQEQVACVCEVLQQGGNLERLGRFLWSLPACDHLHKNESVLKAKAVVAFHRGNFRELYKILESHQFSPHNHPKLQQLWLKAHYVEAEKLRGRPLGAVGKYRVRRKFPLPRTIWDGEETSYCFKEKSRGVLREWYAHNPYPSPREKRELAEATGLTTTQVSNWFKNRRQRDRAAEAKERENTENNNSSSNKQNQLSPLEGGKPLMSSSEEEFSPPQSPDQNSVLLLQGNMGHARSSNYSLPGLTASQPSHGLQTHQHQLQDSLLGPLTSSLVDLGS
#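 AlphaScreen luminescence read after one hour at 37 °C in darkness. Pin-transferred compounds met GST-Six1 and His-Eya2 protein (5X stock 250 nM/500 nM) plus glutathione donor and Ni-chelate acceptor beads (5X, 50 ug/mL).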
# TRPML1 agonist: qHTS for Agonists of the Human Mucolipin Transient Receptor Potential 1 (TRPML1). Mucolipin-1 (Homo sapiens), Q9GZU1. TRPML1-expressing cells, Ca2+ dye fluorescence, FDSS; host cell line not named in the record; reference of the full effect not given here. activation, % (no concentration beside the values). 410,000 compounds, 0.12% hits. AID 624414, 2012; in the data active = activation above about 50%; inconclusive = about 30% to 50%; inactive = below about 30%; further: 0% is about no effect; the text of the record puts the active cut at 80%
#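 Calcium fluorescence on an FDSS kinetic reader gave the read-out. Tet-induced TRPML1-DL cells were plated overnight, dye-loaded (Ca8 with quencher, 45-90 min, room temperature, dark), then read 110 s after compound addition, and again 110 s after 4uM final 54-4 (EC80).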
# * hit, by the source's call; ? = inconclusive; nt = not tested or not shown; [ ] = dose if it differs, or a comment.
SMILES,PINK1 expr mod,CtBP-E1A inh,TRPML1 blocker,D2 ag,Six1-Eya2 inh,TRPML1 agonist
Cc1ccccc1CS(=O)(=O)CCC(=O)N1CCN(c2ccc(N3CCOCC3)nn2)CC1,3.4%[38.3 µM],-3.1,-7.6,-2.9,-2.0,-0.5
COc1cc2c(cc1OC)C(c1cccs1)N(C(=O)c1ccncc1)CC2 (configuration not stated),12.8%,0.6,-9.1,2.7,5.7,1.2
CCCOCC(O)CCc1n[nH]c(=S)n1-c1ccccc1 (configuration not stated),2.9%,2.6,-5.0,-3.9,-5.1,0.9
Cc1ccc(C(=O)N2CCN(c3ccc(NC(=O)c4cccnc4)cc3)CC2)cc1,-0.3%,-1.2,14.5,-0.3,-1.8,0.9
O=C(CSc1n[nH]c(-c2ccccc2)n1)N1CCCCC1,0.6%,nt,10.3,nt,nt,0.8
O=C(Nc1nnc(-c2ccc(Br)cc2)o1)c1ccco1,-0.3%,-7.5,4.7,-6.1,-13.8,-0.5
CNCc1cn2cc(Cl)ccc2n1,1.3%,5.5,43.4,-1.7,?,-0.3
O=C(CN1CCN(S(=O)(=O)c2ccccc2)CC1)Nc1ccc([N+](=O)[O-])cc1,1.8%,-8.6,-8.0,-3.1,-11.5,-0.4
Cc1ccccc1NC(=O)CN(C)S(=O)(=O)c1cccc2nsnc12,-1.4%,nt,-2.0,nt,nt,2.3
Cc1nc(NCCOc2ccccc2)sc1C(=O)Nc1ccccc1,2.0%,-10.9,34.0,-1.2,-3.1,5.2
O=C(CCc1ccccc1)Nc1ccc(N2CCOCC2)cc1,1.6%[38.3 µM],6.4,-19.5,1.6,1.0,-0.1
Cc1c(OC(C)C(=O)NCc2ccncc2)ccc2c3c(c(=O)oc12)CCCC3 (configuration not stated),0.9%,-17.3,7.6,9.9,-5.8,3.0
CC(C)(C)OC(=O)N1CCN(C(=O)c2nc[nH]c2C(=O)N2CCN(c3ccccc3)CC2)CC1,1.3%,1.1,11.7,-1.1,-1.9,-0.5
Cc1ccc(NC(=O)CS(=O)CC(=O)Nc2ccc(N3CCOCC3)cc2)cc1Cl (configuration not stated),18.8%,-6.0,-25.1,-1.9,-6.5,2.1
Cc1cc(C)n2nc(-c3ccc(Br)cc3)cc2n1,1.5%,nt,24.6,5.3,20.5,2.8
CCCCc1nc2n[nH]c(N)c2c2c1CCCC2,0.2%,0.9,21.1,-0.5,1.2,2.5
O=C(CN1C(=O)C2CCCCC2C1=O)Nc1ccc(S(=O)(=O)Nc2ncccn2)cc1 (configuration not stated),0.6%,8.4,-11.4,-4.4,7.4,-0.6
Cc1cc(C)nc(N2CCCC(C(=O)Nc3ccc4c(c3)OCO4)C2)n1 (configuration not stated),3.2%[38.3 µM],2.4,45.3,-0.6,0.9,1.5
O=C(O)C1C2C=CC(O2)C1C(=O)Nc1ccccc1C(F)(F)F (configuration not stated),12.4%,11.0,5.1,-3.0,-4.1,-0.7
CCOc1ccc(Nc2c(S(=O)(=O)c3ccc(C)cc3)cnc3ccccc23)cc1,1.5%,nt,-21.7,nt,nt,-0.5
O=C(NCc1ccc(F)cc1)OC1CC2CC1[C@H]1CCCCN1C2=O (some centres not stated),-0.3%,-16.2,nt,nt,12.3,-0.1
CN(C)c1ccc(CNC(=O)c2cccc(NC(=O)N3CCSc4ncccc43)c2)cc1,0.8%,nt,6.1,nt,nt,-1.0
CCN(CC)S(=O)(=O)c1cccc(-c2nnc(SCc3ncc(-c4ccccc4)o3)n2C)c1,1.1%,-2.5,3.5,1.3,3.5,-1.2
CCCSc1ncc(Cl)c(C(=O)Nc2nc3ccc(C)cc3s2)n1,1.0%,nt,0.0,nt,nt,0.3
COc1ccccc1CNc1n[nH]c(NCc2ccccc2OC)n1,1.9%,-12.4,7.6,1.6,-14.6,0.3
CC(C)=CCN1CCN(Cc2c(C)nn(C)c2Cl)CC1CCO (configuration not stated),1.3%,2.5,12.1,-2.6,3.4,-0.7
O=C(Nc1nncs1)c1c(F)c(F)c(F)c(F)c1F,0.0%,0.3,-5.5,-0.7,4.4,-0.1
O=C(Nc1ccccc1F)c1ccc(-c2cccc([N+](=O)[O-])c2)o1,6.9%,-26.7,13.6,-0.3,-25.7,3.4
Cc1ccc(S(=O)(=O)N2CCN(C(=O)c3n[nH]c(=O)c4ccccc34)CC2)c(C)c1,0.5%,-15.8,-14.7,-2.0,-11.0,2.0
COc1ccc(/C=C2/CSC/C(=C/c3ccc(OC)c(OC)c3)C2=O)cc1OC,-1.1%,-2.7,12.0,3.1,7.3,3.3

# Part of the list above with just TRPML1 agonist:
SMILES	TRPML1 agonist
COc1ccccc1CNc1n[nH]c(NCc2ccccc2OC)n1	0.3
CN(C)c1ccc(CNC(=O)c2cccc(NC(=O)N3CCSc4ncccc43)c2)cc1	-1.0

# The list continues:
SMILES,PINK1 expr mod,CtBP-E1A inh,TRPML1 blocker,D2 ag,Six1-Eya2 inh,TRPML1 agonist
O=C(NCCN1CCN(C(=O)c2cccc(OC(F)F)c2)CC1)c1cccc(OC(F)F)c1,1.0%,2.1,-4.3,-2.4,1.8,-0.4
CCOC(=O)C1CCN(C(=O)CCS(=O)(=O)c2ccc3c(c2)n(C)c(=O)c(=O)n3C)CC1,0.2%,6.0,-5.9,0.6,5.0,0.2
Nc1nc(-c2ccccc2)cc(N2CCCCC2)n1,3.1%,0.7,0.5,-3.2,-0.3,-0.3
O=C(C1CC1)N1CCc2cc(Br)cc(S(=O)(=O)Nc3ccc(C(F)(F)F)cc3)c21,0.9%,nt,-1.2,nt,nt,-0.7
CC1(C)CC(=O)C2=C(C1)NC1=C(C(=O)c3ccccc31)C2c1ccc(Cl)cc1 (configuration not stated),?,-25.5,-16.2,-7.2,?,-0.6
CCc1ccc(NC(=O)C(=O)NCC(O)c2ccccc2)cc1 (configuration not stated),4.7%,16.5,6.1,1.4,12.4,-0.4
COc1ccc2[nH]c3c(c2c1)CCN1C(=O)C(CC(=O)NCC24CC5CC(CC(C5)C2)C4)C[C@H](C(=O)N2CCCCC2)[C@@]31C (some centres not stated),-0.7%,1.0,13.3,-2.1,-1.6,-0.6
CCN(CC(=O)Nc1c(C(=O)OC)[nH]c2ccc(C)cc12)c1ccc2c(c1)OCO2,-0.4%,?,37.8,1.8,?,0.7
COC(=O)NC(=S)N1CCOCC1,-0.8%,-1.5,-10.0,-3.3,4.0,-0.5
S=c1[nH]ccn1-c1ccc(Cl)cc1,-1.0%,-2.2,5.5,-0.2,-3.8,-1.5
CC(=O)N1N=C(c2cccc([N+](=O)[O-])c2)OC1c1cccc(Br)c1 (configuration not stated),1.1%,nt,1.6,6.7,-2.2,-0.2
CC(C)c1ccccc1NC(=O)Nc1nnc([C@H]2C[C@H](O)[C@@H](CO)O2)s1,0.8%,-19.1,7.3,3.3,6.8,-0.8
O=C(CCN1C(=O)c2cccc3cccc(c23)C1=O)NCC1CCCO1 (configuration not stated),-2.0%,-0.2,1.6,2.3,0.0,-0.9
CCOc1ccc(NS(=O)(=O)c2ccc3[nH]cc(C(=O)N(C)C4CCCCC4)c(=O)c3c2)cc1,2.3%,nt,-0.9,nt,nt,4.8
Cc1ccc2c(c1)-c1c(cnc3cc(-c4ccccc4)nn13)CO2,0.3%,nt,2.5,nt,nt,0.2
CCCCN(CC)C(=O)c1c[nH]c2ccc(S(=O)(=O)N(C)c3ccc(Cl)cc3)cc2c1=O,1.7%,nt,19.1,nt,nt,2.5
O=C(Cc1ccccc1)Nc1ccc(N2CCOCC2)cc1N1CCOCC1,-4.7%,1.0,11.0,0.8,-0.2,2.5
O=C1c2ccccc2C(=O)N1C(CO)C(O)c1ccc([N+](=O)[O-])cc1 (configuration not stated),-0.8%,0.5,nt,4.9,0.0,nt
CCOC(=O)c1c(NCC2CCCO2)c2ccccc2[nH]c1=O (configuration not stated),1.8%,2.9,24.1,1.2,-3.9,-1.4
CC(=O)O[C@H]1CC[C@@]2(C)C(CCC3C2CC[C@]2(C)OC(=O)CCC32)C1 (some centres not stated),-1.1%,2.4,57.6,2.6,5.4,2.1

# Molecules from the list above that have an aryl thioether with sulfur outside any ring (three):
SMILES,PINK1 expr mod,CtBP-E1A inh,TRPML1 blocker,D2 ag,Six1-Eya2 inh,TRPML1 agonist
O=C(CSc1n[nH]c(-c2ccccc2)n1)N1CCCCC1,0.6%,nt,10.3,nt,nt,0.8
CCN(CC)S(=O)(=O)c1cccc(-c2nnc(SCc3ncc(-c4ccccc4)o3)n2C)c1,1.1%,-2.5,3.5,1.3,3.5,-1.2
CCCSc1ncc(Cl)c(C(=O)Nc2nc3ccc(C)cc3s2)n1,1.0%,nt,0.0,nt,nt,0.3

# The results go on.
SMILES,PINK1 expr mod,CtBP-E1A inh,TRPML1 blocker,D2 ag,Six1-Eya2 inh,TRPML1 agonist
C=CCS(=O)(=O)c1nc2ccccc2s1,-3.1%,10.4,-1.9,-4.0,-5.2,1.0
CC(O)(c1ccccc1)c1nc(/C=C/c2ccccc2)cs1 (configuration not stated),11.0%,-2.5,nt,-2.6,-2.0,-0.4
Nn1c(SCc2cccc(F)c2)nnc1-c1ccncc1,3.3%,3.9,0.1,-3.9,13.0,0.4
CCOC(=O)c1ccccc1NC(=O)c1c(C)oc2ncnc(N3CCOCC3)c12,-6.7%,nt,-14.7,nt,nt,6.5
CC(C)(C)C(=O)Nc1nc2cc3c(cc2s1)OCO3,4.3%,nt,-20.9,5.2,-12.0,0.5
CCOC(=O)C1=NN(c2ccccc2)C(=O)C1,0.9%,nt,4.9,-4.5,5.7,-1.1
COc1ccc(OC)c(S(=O)(=O)NC(C)CCc2ccccc2)c1 (configuration not stated),1.3%,12.1,5.9,0.8,-3.8,0.6
Nc1nc(N)nc(-c2ccc([N+](=O)[O-])o2)n1,-0.2%,-22.3,4.8,11.1,-18.5,0.7
CC(NC(=O)C(Cc1ccccc1)=NO)c1ccccc1 (configuration not stated),5.7%,6.0,8.5,-1.6,-1.0,2.1
O=C(Nc1cccc(-c2ccc3nncn3n2)c1)c1ccco1,5.6%,?,-8.8,-3.0,?,0.8

# The order is random. About 1% of those tested had a hit in this group.
